H5N1 antiviral = MDCK cell protection from H5N1 avian flu. cytopathic effect, luminescence, 72 h; hits give high values; no value below 0 was filed and about half of the inactive calls have no number; reference of the scale not given here. inhibition, % at 50 µM. actives 0.07% (n = 96,000); in the data active = inhibition above about 25%
* hit, by the source's call; i = inactive.

SMILES	H5N1 antiviral
CC(C)C[C@H](NC(=O)OC(C)(C)C)C(=O)N1CCC(C(=O)O)CC1	i
O=C(CCCc1ccccc1)N1CCN(c2ccc([N+](=O)[O-])cc2)CC1	0.5
O=C(Cn1c(=S)nc2ccccn21)N1CCc2ccccc2C1	3.7
COc1cccc(NC(=O)Cc2c(O)c3ccccc3[nH]c2=O)c1	0.2
COc1cccc2cc(C(=O)OC3CCN(C)CC3)c(=O)oc12	i
CC(=O)c1c(O)n(C)c(=S)n(-c2ccccc2)c1=O	i
CCCc1cc(=O)n2[nH]c(C)cc2n1	0.6
Cc1ccc(CCNC(=O)C2CCCN(S(=O)(=O)c3c(C)noc3C)C2)cc1 (stereo not drawn)	0.2
CSc1ccccc1NC(=O)c1ccoc1C	9.3
O=C(CNC(=O)c1ccco1)OCN1C(=O)c2ccccc2C1=O	i
COC(=O)CNc1nc(C2CC2)nc2c1nnn2Cc1ccccc1Cl	i
COc1ccc(-c2noc(CN(C(=O)c3c(-c4ccccc4Cl)noc3C)C(C)C)n2)cc1	4.1
Cc1ccccc1OCCCC(=O)Nc1ccccc1C(F)(F)F	i
COc1ccc(C2CC(=O)c3cnc(NC(=O)c4cc(OC)cc(OC)c4)nc3C2)cc1 (stereo not drawn)	0.9
Cc1nc(S(=O)(=O)c2cccc(Cl)c2)nc2c1CCC2	i
O=C(CCC1COc2ccccc2O1)NC1CCCCC1 (stereo not drawn)	0.8
O=C(CSc1cn(CCNC(=O)c2cccs2)c2ccccc12)NCC1CCCO1 (stereo not drawn)	5.3
O=[N+]([O-])c1cc(-c2cnc3ccccc3n2)ccc1Oc1ccc(F)cc1	i
CC1CCN(C(=O)CCc2nc3cc(S(=O)(=O)N(C)C)ccc3n2C)CC1	0.8
COc1cc(C(=O)OCCN2CCOCC2)ccc1O	i
CN1CCN(C(=O)c2cnn3c(C(F)(F)F)cc(-c4ccc5c(c4)OCO5)nc23)CC1	1.1
CCOC(=O)c1ccc(S(=O)(=O)Nc2cc(C(C)(C)C)no2)cc1	1.5
O=C(CN1C(=O)COCC1=O)N1CCOCC1	i
CCOC(=O)N1CCC(NC(=O)C2CCCN(S(=O)(=O)c3cccnc3)C2)CC1 (stereo not drawn)	i
Cc1nc(NC(=S)NC(=O)c2cccs2)sc1C(=O)N(C)C	i
CN(C)CCCN1c2ccccc2Sc2ccc(Cl)cc21	i
CCc1nc2ccccc2n1Cc1ccccc1OC	0.1
CN(C)S(=O)(=O)c1ccc(N2CCOCC2)nc1	1.6
CC(=O)c1c(C)[nH]c(C(=O)N2CCN(c3ccc(F)cc3)CC2)c1C	i
O=C(Nc1ccc2c3c(cccc13)CC2)c1ccco1	i
Cc1c(C(=O)NCc2ccc3c(c2)OCO3)oc2ccc(S(=O)(=O)N3CCCCC3)cc12	3.0
CN(C)S(=O)(=O)N1CCC(Cc2ccccc2)CC1	0.3
N#CCCN1CCN(S(=O)(=O)c2ccc(S(=O)(=O)NCC3CCCO3)cc2)CC1 (stereo not drawn)	i
CCOc1cc(S(=O)(=O)NCc2ccccn2)c(C)cc1C	i
CC(C)CCNC(=O)CN(C)S(=O)(=O)c1cccc2nsnc12	i
COCCNC(=O)c1ccccc1NC(=O)c1ccc(OC)c(OC)c1	i
CCN(c1ccc(OC)cc1)c1ncnc2nc[nH]c12	1.2
CCOC(=O)C1=C(C)N=c2s/c(=C/c3ccccc3)c(=O)n2C1c1ccc(OC)c(OC)c1 (stereo not drawn)	0.8
COc1ccc(S(=O)(=O)NCCOc2ccccc2)cc1OC	i
O=C(O)C1(c2ccc(Cl)cc2)CCC1	i
O=C(CN1CCC(n2nnc3ccccc32)CC1)NCc1cccs1	i
COc1ccc(N2CCN(C(=O)CN(c3ccccc3)S(C)(=O)=O)CC2)cc1	i
O=C(O)CNc1nc(Cl)ccc1[N+](=O)[O-]	i
CC(=O)NC(CCS(C)(=O)=O)C(=O)N1CCc2ccccc21 (stereo not drawn)	0.7
CCCCc1cc(=O)oc2c(CN(C)C)c(O)c(Cl)cc12	i
CC(NCCO)C(=O)C12CC3CC(CC(C3)C1)C2 (stereo not drawn)	i
COc1cccc(C(=O)Nc2ccc(NC(=O)C(C)C)nc2)c1	i
Cc1ccc(C(=O)N2CCN(c3ccc(C(F)(F)F)cn3)CC2)c(C)c1	2.1
COc1cc(CNCC(O)c2ccccc2)ccc1OCc1ccc(Cl)nc1 (stereo not drawn)	i
O=C(Cc1n[nH]c(=O)c2ccccc12)NCc1ccccn1	2.0
O=C1c2cccnc2C(=O)N1Cc1cccs1	1.5
Cc1ccc(S(=O)(=O)N2CCN(S(=O)(=O)N3CCOCC3)CC2)cc1C	i
O=c1nc(N(c2ccccc2)c2ccccc2)[nH]c(=O)[nH]1	0.5
CCOC(=O)C1=C(N)Oc2c(oc(CO)cc2=O)C1c1c(F)cccc1Cl (stereo not drawn)	i
CC1Oc2ccccc2C=C1C1/C(=C(/O)c2ccccc2)C(=O)C(=O)N1CCCN(C)C (stereo not drawn)	0.1
c1nc(NC2CCCCC2)c2[nH]cnc2n1	0.2
CC(C)(C)c1ccc(C(=O)NNC(=O)c2ccccc2Br)cc1	0.3
O=C(C1CCN(S(=O)(=O)c2cccc3nsnc23)CC1)N1CC=C(c2ccccc2)CC1	0.9
Cc1oc(C(=O)Nc2ccc(O)cc2)cc1COc1ccccc1	0.4
O=C(Nc1cccnc1)Nc1ccc2c(c1)OCO2	i

Next section.
SMILES	H5N1 antiviral
O=C(Nc1ccc2c(c1)CCC2)c1cc(S(=O)(=O)N2CCN(c3ccccc3)CC2)ccc1Cl	1.4
Nc1nonc1-c1nc2ccccc2n1CCC(=O)O	i
O=C(Cn1c(=O)oc2ccccc21)NC(=O)NCc1ccccc1	i
C#CCN1C(=O)C2(C(C#N)=C(N)OC(C)=C2C(=O)OCc2ccccc2)c2ccccc21 (stereo not drawn)	i
CCC(=O)N1c2ccc(S(=O)(=O)CCC(=O)N3CCn4c3nc3ccccc34)cc2CC1C (stereo not drawn)	9.3
CCOC(=O)N1CCN(CC(O)c2ccc3c(c2)CCN3)CC1 (stereo not drawn)	i
Cc1cccc(NC(=S)N2CCN(Cc3ccc4c(c3)OCO4)CC2)c1C	i
CC1CN(S(=O)(=O)c2cccc(-c3csc(-c4ccccc4)n3)c2)CC(C)O1 (stereo not drawn)	1.2
CS(=O)(=O)N(CC(=O)N1CCN(C(c2ccccc2)c2ccccc2)CC1)C1CCCCC1	0.9
Cc1nn(Cc2ccccc2Cl)c(C)c1C(=O)Nc1nnc(C2CC2)s1	i
CS(=O)(=O)N(CC(=O)Nc1c(F)cccc1F)c1ccc(C23CC4CC(CC(C4)C2)C3)cc1	i
CCOC(=O)c1ccccc1Nc1cn(C(C)=O)c2ccccc12	i
COc1ccc(/C=C/c2ccncc2)c2ccccc12	i
Cc1ccc(OCCCC(=O)Nc2ccc3c(c2)OCO3)cc1	0.4
COC(=O)CN1C(=O)C(C)=C(c2ccc(C)cc2)S1(=O)=O	i
C=CCNc1nc(Nc2ccc(OC)cc2)nc(OCC)n1	i
Nc1csnc1C(=O)O	i
C=CCn1c(SCc2c(C)noc2C)nc2sc3c(c2c1=O)CCCCC3	1.4
CCOC(=O)c1oc2ccccc2c1CSc1nnnn1-c1ccccc1	1.8
COc1cccc(OCCOc2ccccc2OC(C)C)c1	1.6
CCN(CC)c1ncnc2c1sc1nc(C)cc(C)c12	0.3
NC(=O)COc1ccc(/C=N/NC(=O)C2CCCN2S(=O)(=O)c2ccc(Cl)cc2)cc1 (stereo not drawn)	0.4
CCCCn1c(-c2ccc([N+](=O)[O-])cc2)n[nH]c1=S	0.2
CSc1nc(-c2ccco2)nn1S(C)(=O)=O	i
CCn1ncc(C2=NOC(C(=O)Nc3ccc(C)cc3)C2)c1C (stereo not drawn)	i
Cc1cccc(-n2c(O)c(C=NC3CCS(=O)(=O)C3)c3ccccc3c2=O)c1 (stereo not drawn)	i
CCOC(=O)N1CCC(n2c(SCC(=O)NCCC3=CCCCC3)nc3ccccc3c2=O)CC1	0.8
Oc1ccc2ccccc2c1CNn1cnnc1	i
COC(=O)COC(=O)c1ccc(-n2nnnc2SC)cc1	i
CCN(CC)CCNC(=O)NC1CCCCC1	i
CCn1c(SCC(=O)NCC(=O)Nc2ccc(F)cc2)nnc1-c1cccs1	0.5
CCS(=O)(=O)NCc1cn2c(C)csc2n1	0.9
COc1ccc(OC)c(NC2c3ncccc3C(=O)N2Cc2ccco2)c1 (stereo not drawn)	1.3
Cc1cc(C)cc(N(CC(=O)N2CCN(c3ccccc3)CC2)S(=O)(=O)c2c(C)noc2C)c1	0.7
CSc1nc(C)cc(OCCO)n1	i
COc1cccc(C(=O)NC2CCSC2=O)c1 (stereo not drawn)	1.8
CC12COC3(C(=O)Nc4ccc(Cl)cn4)CC1CCC32C (stereo not drawn)	i
CN(C(=O)c1ccccn1)c1nnc(-c2cnccn2)s1	0.7
Cc1ccc2nc(-c3ccc(NC(=O)C4CCCO4)cc3)[nH]c2c1 (stereo not drawn)	i
O=C(CCn1c(=O)c2sccc2n(CC(=O)NCc2ccco2)c1=O)NCc1ccccc1	0.1

Sorted by formula weight (rising): 3 of the compounds above.
SMILES	H5N1 antiviral
CCN(CC)CCNC(=O)NC1CCCCC1	i
COc1ccc(OC)c(NC2c3ncccc3C(=O)N2Cc2ccco2)c1 (stereo not drawn)	1.3
CCn1c(SCC(=O)NCC(=O)Nc2ccc(F)cc2)nnc1-c1cccs1	0.5

Taken from above.
CCOC(=O)N1CCC(n2c(SCC(=O)NCCC3=CCCCC3)nc3ccccc3c2=O)CC1 in H5N1 antiviral is listed with 0.8
CCN(CC)c1ncnc2c1sc1nc(C)cc(C)c12 in H5N1 antiviral is listed with 0.3
COc1ccc(OC)c(NC2c3ncccc3C(=O)N2Cc2ccco2)c1 (stereo not drawn) in H5N1 antiviral is listed with 1.3
CN(C(=O)c1ccccn1)c1nnc(-c2cnccn2)s1 in H5N1 antiviral is listed with 0.7
CCS(=O)(=O)NCc1cn2c(C)csc2n1 in H5N1 antiviral is listed with 0.9
Cc1cc(C)cc(N(CC(=O)N2CCN(c3ccccc3)CC2)S(=O)(=O)c2c(C)noc2C)c1 in H5N1 antiviral is listed with 0.7
CCn1c(SCC(=O)NCC(=O)Nc2ccc(F)cc2)nnc1-c1cccs1 in H5N1 antiviral is listed with 0.5
NC(=O)COc1ccc(/C=N/NC(=O)C2CCCN2S(=O)(=O)c2ccc(Cl)cc2)cc1 (stereo not drawn) in H5N1 antiviral is listed with 0.4
O=C(CCn1c(=O)c2sccc2n(CC(=O)NCc2ccco2)c1=O)NCc1ccccc1 in H5N1 antiviral is listed with 0.1

Among those listed so far, these have a tert-butyl group:
SMILES	H5N1 antiviral
CC(C)C[C@H](NC(=O)OC(C)(C)C)C(=O)N1CCC(C(=O)O)CC1	i
CCOC(=O)c1ccc(S(=O)(=O)Nc2cc(C(C)(C)C)no2)cc1	1.5
CC(C)(C)c1ccc(C(=O)NNC(=O)c2ccccc2Br)cc1	0.3

Additional records:
SMILES	H5N1 antiviral
CCOC(=O)c1[nH]c(Cc2[nH]c(C(=O)OCC)c(C)c2CCC(=O)OC)c(CCC(=O)OC)c1C	i
O=C(CCN1CCCCC1)NCC(=O)Nc1ccc(Br)cc1C(=O)c1ccccc1	1.6
Cc1ccnc(Sc2nc3c(c(=O)[nH]c(=O)n3C)n2CCCc2ccccc2)n1	2.5
CN(C)S(=O)(=O)Oc1cccc(C(=O)Nc2cccc(Cl)c2)c1	6.3
O=C(Cn1c(=O)sc2ccccc21)Nc1ccccc1C(=O)O	i
CC(Oc1ccc(Cl)cc1)C(=O)Nc1nccs1 (stereo not drawn)	0.8
CCCCNC(=O)Nc1ccnn1C1CCCCC1	0.6
c1ccc(CSc2nnc(-c3ccccn3)n2-c2ccccc2)cc1	0.1
COc1ccc(OC)c(/C=C/C(=O)c2ccc(Cl)cc2)c1	i
COc1ccccc1Nc1nc(-c2sc(NC(=O)c3ccco3)nc2C)cs1	i
CCOC(=O)c1c(-c2cccs2)csc1NC(=O)c1ccncc1	0.1
Cc1c(Nc2nc3ccccc3nc2NS(=O)(=O)c2cccs2)c(=O)n(-c2ccccc2)n1C	1.0
CCCN(CCC(=O)Nc1cc(OC)cc(OC)c1)CC1CC1	0.2
CSc1nccc(-c2cc(Cl)sc2Cl)n1	i
CC(=O)c1cc2c(cc1NC(=O)c1c(-c3ccccc3)noc1C)OCO2	i
O=C1c2ccccc2C(=O)N1Cc1ccco1	2.5
CCOC(=O)c1ccc(N2C(=O)C(C)=C(C)C2=O)cc1	i
CC(C)N(Cc1ccccc1)C(=O)c1cnc2n(c1=O)CCS2	0.5
Cc1ccc(-c2nc3ccccc3n3c(C)nnc23)cc1	1.0
Cc1cc(C(=O)Nc2ccccn2)cs1	1.0
COc1ccc(OC)c(NC(=O)C2CCN(c3nc(C)cc(C)n3)CC2)c1	0.3
CSc1ccc(-c2c(C#N)c(N)nc3c2CCCC3)cc1	1.4
CC1=C(C(N)=O)C(c2ccccc2)n2nc(-c3cccs3)nc2N1 (stereo not drawn)	0.3
CN(C)/N=C/C=C1\CC/C(=C\c2ccc(Br)cc2)C1=O	i
O=C(O)CCC(=O)NCc1ccc2[nH]c3c(c2c1)CCCC3	0.1
CCOc1cc(CNc2ccc(Br)cc2)cc(Br)c1OCC(=O)NC(C)(C)C	1.5
CS(=O)(=O)N(CC(=O)N1CCCC1)c1cccc(Cl)c1Cl	0.3
CCCCNC(=O)CCSc1nc2nc(C)cc(C)n2n1	0.5
COc1ccc(N2C(=O)C3CCCN3C2c2ccccc2)cc1 (stereo not drawn)	4.8
Cc1c(NC(=O)c2cccc(F)c2)c(=O)n(-c2ccccc2)n1C	i
Cn1nc(OC(=O)Nc2cccc(Cl)c2)cc1C(F)(F)F	i
CC(C)c1ccc(NC(=O)CSc2nc3c(c(=O)[nH]2)CCC3)cc1	0.5
COCCn1cc(C(=O)N2CCC3(CC2)OCCO3)c2c3ccccc3n(C)c2c1=O	1.6
c1ccc(N2CCN(c3ccccc3)C2c2ccncc2)cc1	2.5
O=C(Nc1ccc2nc(-c3cccnc3)[nH]c2c1)c1ccco1	4.9
O=C(COc1ccc2ccccc2c1)N1CCN(Cc2c[nH]c3ccccc23)CC1	i
COc1ccc(N2CCN(C(CNC(=O)Oc3ccccc3)c3cccnc3)CC2)cc1 (stereo not drawn)	0.8
CC(=O)c1cccc(NS(=O)(=O)c2cc(OCC(N)=O)c(C)cc2Cl)c1	i

From PubChem

These rows are one share of the data; rates above refer to the full screens.
